# Screens deposited in PubChem BioAssay by National Center for Advancing Translational Sciences (NCATS).
# StopGo FLuc – lowers the firefly signal of an FMDV 2A StopGo reporter; AID 1745856; Potency, µM (series often up to 57.5 µM), for the others: at the top dose signal change, negative = less light; actives 0.23% (n = 120,000); HEK cells with a luciferase reporter of 2A StopGo recoding; active = well fitted falling curve with a large enough effect; inconclusive = small, poorly fitted or top-dose-only effect; inactive = no such curve, though single readings can be large or run the other way; note: nearly all actives have a fitted effect of over 60% in size; overnight with compound
# 2A Renilla – lowers the Renilla signal of an FMDV 2A StopGo reporter; Potency, µM (series often up to 57.5 µM), for the others: top-dose signal change, negative = less light; actives 0.32% (n = 120,000); HEK cells with a luciferase reporter of 2A StopGo recoding; active means well fitted falling curve with a large enough effect; inconclusive means small, poorly fitted or top-dose-only effect; inactive means no such curve, though single readings can be large or run the other way; note: nearly all actives have a fitted effect of over 55% in size; overnight with compound
# * marks the source's active call; other numbers are inactive results; ? = inconclusive; & = joins results of further samples; [ ] = remark or other dose. % is set by controls: 0 for no effect and ±100 for the full control effect; potency is the fitted concentration of half-maximal effect.
SMILES,StopGo FLuc,2A Renilla
O=C(Nc1nc(-c2ccccc2)cs1)C1CC(=O)N(c2ccccc2F)C1 (stereo not given),?,?
C/C=C/Cn1c(SCc2cccc(C)c2)nc2c1c(=O)[nH]c(=O)n2C,9%,-6%
Cc1ccc(OCCOc2ccc(Cl)cc2/C=C(/C#N)c2ccccc2)cc1,15%,12%
COc1ccc(/C=C(/C#N)c2nc(-c3ccc(Br)cc3)cs2)cc1,-4%,-10%
CCCN(CCC)CC(O)Cn1cc(/C=C/C(=O)c2ccc(C)cc2)c2ccccc21 (stereo not given),-4%,-6%
CC1CCC(=NNC(=O)c2cc(-c3ccc(Cl)cc3)nc3ccccc23)CC1 (stereo not given),65%[activator],23%
CCN1CCCC1CNC(=O)CSCc1cccc(C)c1 (stereo not given),20%,2%
CCCCN(C)CCCNC(=O)C1CCN(c2nc3ccc(CC)cc3s2)CC1,69%[activator],-14%
CCOc1ccc(CCNc2ncnc3onc(-c4ccc(F)cc4)c23)cc1OCC,?,?
COc1ccc(-c2noc(CSc3nnc4ccccn34)n2)cc1,159%[activator],0%
O=C(CC1C(=O)Nc2nc(SCc3ccccc3)nn21)Nc1cccc(C(F)(F)F)c1 (stereo not given),-12%,-7%
CC(C)(C)c1ccc(C(=O)Nc2ccc(NC(=O)c3ccc(Cl)c(Cl)c3)cc2)cc1,-3%,-7%
CN(C)C(=O)c1ccc(CNC(=O)C2CCCC2)cc1,0%,-6%
Cc1ccc(C)c(CN2C(=O)c3ccccc3S(=O)(=O)c3ccc(C(=O)N4CCN(C)CC4)cc32)c1,0%,131%[activator]
CCN1C(=O)C(NC(=O)C(=O)NCc2cccnc2)c2cc(Cl)ccc21 (stereo not given),24%,23%
Cc1cc(C)c2oc(C(=O)Nc3ccccc3C)cc(=O)c2c1,52%,13%
Cc1cccc(NC(=O)Cn2c(SCC(=O)NCc3ccccc3)nc3ccccc32)c1C,-3%,-18%
Cc1cc(C)c(C(O)C(C)Sc2ccc(Cl)cc2)cc1C (stereo not given),16%,-3%[1.06 µM]
Cc1nc(-c2ccc(Cl)cc2)sc1CCNC(=O)C(=O)Nc1ccc2c(c1)OCO2,19%,-17%
COc1cccc(-c2cn3c(n2)sc2cc(C(=O)NCCc4ccccc4)ccc23)c1,9%,-28%
Cc1cn2c(=O)cc(COc3cccc(NC(=O)c4ccc(C(C)(C)C)cc4)c3)nc2s1,69%[activator],-15%
OC(CNCC(O)COc1ccccc1)COc1ccccc1 (stereo not given),14%,4%
Cc1[nH]c2nc3ccccc3n2c(=O)c1Cc1ccc(Br)cc1,-4%,-12%
COc1ccc(/C=C(\C#N)c2nc3ccccc3o2)cc1,146%[activator],37%[activator]
O=C(CN1CCCC1c1ccccc1)Nc1ccc(F)cc1 (stereo not given),11%,18%
CCc1c(C(=O)c2ccc[nH]2)oc2ccc(Br)cc12,12%,1%
C/C=C/c1ccc(OCC(=O)N2CCN(S(=O)(=O)c3ccccc3)CC2)c(OC)c1,-16%,-11%
CCc1cccc(C)c1NC(=O)CN1CCN(Cc2ccccc2Cl)S1(=O)=O,-11%,14%
CCCCNC(=O)c1ccc(NC(=O)c2ccncc2)cc1,-2%,-2%
CCOC(=O)C1C(=O)C=C(Nc2ccc(C(F)(F)F)cc2)CC1c1ccccc1 (stereo not given),58%[activator],-5%
Cc1ccc(NC(=O)CC2Nc3cccc4cccc(c34)NC2=O)cc1 (stereo not given),0%,6%
CC(=O)c1cccc(Nc2ncnc3c2cnn3C)c1,19%,3%
Cc1noc(C)c1CS(=O)(=O)c1ccc(Cl)cc1,0%,-4%
c1cc(CNCc2cccc3[nH]ccc23)c2cc[nH]c2c1,6%,-12%
COc1ccccc1-c1nnc2sc(-c3ccc4ccccc4n3)nn12,82%[activator],25%
CC(C)CCNC(=O)c1cccc(Nc2nc3ccccc3n3nnnc23)c1,-7%,-3%
O=C(N/N=C/c1ccc(OCc2ccccc2)cc1)c1ccc(CSCc2ccccc2)cc1,43%[activator],-6%
COC(=O)C1=C(c2ccccc2)c2ccccc2S(=O)(=O)N1CC(=O)Nc1ccc(C)c(F)c1,30%,70%[activator]
C[N+]1(Cc2ccccc2)CCN(/C=C/C(=O)C(F)(F)F)CC1,8%,-4%
CCc1ccc(NC(=O)c2cccn(Cc3cccc([N+](=O)[O-])c3)c2=O)cc1,?,?
CCOCCCn1c(SCC(=O)Nc2ccccc2CC)nc2ccccc2c1=O,-19%,-14%
COC(=O)c1c(C)sc(-c2c(-c3ccc(F)cc3)[nH]c3[nH]c(=O)[nH]c(=O)c23)c1O,-16%,-15%
O=C(NCc1ccncc1)C1CCC1,-2%,-6%
Cc1[nH]c2ccccc2c1C(=O)C(C)OC(=O)c1ccc(CO)cc1 (stereo not given),-1%,-6%
Cc1c(NC(=O)c2cc(=O)c3ccccc3o2)c(=O)n(-c2ccccc2)n1C,-18%,-4%
Cc1ccc(NC(=O)CN2C(=O)c3ccccc3Sc3ccc(C(=O)N4CCOCC4)cc32)cc1C,-16%,4%
Cc1ccc(-c2nc(Cn3cc(C(F)(F)F)ccc3=O)co2)c(C)c1,0%,-2%
Cc1cc(C(=O)NC(C)(C)c2ccc3c(c2)OCO3)on1,-6%,-3%
COc1ccc(CC(=O)Nc2ccc(S(=O)(=O)N3CCCCC3)cc2)cc1OC,-12%,20%
O=C(CCc1ncc(-c2ccc(F)cc2F)o1)N1CCc2ccccc21,13%,37%[activator]
NNC(=S)Nc1ccc(Br)cc1,14%,3%
COc1ccccc1OC(C)C(=O)Nc1ccc(-c2nc3ccccc3s2)cc1 (stereo not given),170%[activator],4%
COc1ccc(C(=O)C(C)OC(=O)c2ccc3ccccc3n2)cc1 (stereo not given),-2%,0%
O=c1cc(COc2ccccc2Cl)nc2scc(-c3ccccc3)n12,20%,3%
O=C(Cn1c(=O)n(-c2ccccc2)c(=O)c2c3c(sc21)CCC3)c1ccc(F)cc1,-1%,-8%
O=C(NNC(=S)NC(=O)C(c1ccccc1)c1ccccc1)c1ccc(NC(=O)c2ccccc2)cc1,7%,12%
Cc1nc(SCC(=O)c2ccc(F)cc2)n[nH]1,49%[activator],-5%
O=c1c2oc3ccccc3c2n(Cc2cccc(Cl)c2)c(=O)n1Cc1ccco1,-19%,-10%
CCOc1ccc(-c2nn(CC(=O)NC3CCCC3)c3c2cnc2ccc(C)cc23)cc1,-6%,-10%
COc1cccc2cc(-c3nnc(Nc4ccccc4C)s3)c(=O)oc12,66%[activator],-6%

# Other results
SMILES,StopGo FLuc,2A Renilla
CCOc1ccc(NC(=O)Cn2cc(C(=O)c3ccc(OCC)cc3)c(=O)c3cc4c(cc32)OCCO4)cc1,117%[activator],-11%
Cc1ccc(Cn2c(CNC(=O)Cc3cccc([N+](=O)[O-])c3)nc3cccnc32)cc1,19%,40%[activator]
COc1cc(C(=O)Nc2ccc3nc4n(c(=O)c3c2)CCCCC4)cc(OC)c1OC,-8%,2%
CC(C)(O)C#Cc1ccc(C(=O)NC(CSCc2ccccc2)C(=O)O)cc1 (stereo not given),18%,2%
CC(=O)c1ccc(N2CCN(C(=O)C3CCN(S(=O)(=O)c4cn(C)cn4)CC3)CC2)cc1,-9%,-5%
O=C(COc1ccccc1F)Nc1ccc(O)c(-c2nc3ccccc3o2)c1,-1%,-8%
CCOC(=O)c1ccc(Oc2c(C(F)(F)F)oc3cc(O)ccc3c2=O)cc1,?,25µM*
O=C(NCc1ccccn1)c1ccc(C(F)(F)F)cc1,81%[activator],15%
COC(=O)c1c(Cl)c(C)nc2c1c(C)nn2C,18%,8%
Clc1cccc(-n2ncc3c(NC4CCCCC4)ncnc32)c1,212%[activator],?
COc1cc(OC)c2c(C)c(CC(=O)NCCc3cccc(F)c3)c(=O)oc2c1,0%,0%
COc1ccc(NS(=O)(=O)c2ccc3c(c2)OCCCO3)cn1,?,13%
CC1(C)CC(=O)C2=C(C1)C(c1ccco1)Nc1ccc3ccccc3c12 (stereo not given),14%,33%[activator]
COc1ccc(-c2cn(-c3ccc(C)cc3)c(S(=O)(=O)CC(=O)Nc3ccccc3)n2)cc1,251%[activator],-9%
Cc1ccccc1Nc1c(-c2ccccc2)nc2cccc(C)n12,-13%,-1%
Cc1ccc(-c2nc3ccccc3[nH]2)cc1NC(=O)COc1cccc(C)c1C,29%,0%
COc1cc2c(cc1NC(=O)CSc1nc3ccccc3o1)oc1ccccc12,18%,-9%
COc1ccccc1C(=O)NC(=O)Nc1ccc(-c2cc(C(F)(F)F)nn2-c2ccccc2)cc1,32%[activator],11%
CC1=Nc2cc(C(=O)NC3CCCC3)ccc2Sc2ccc(C)cc21,61%[activator],65%[activator]
COC(=O)c1cc(NCC(=O)N2CCNC2=O)ccc1Cl,32%[activator],0%
COc1ccc(S(=O)(=O)n2nc(-c3ccco3)nc2NCc2ccc(N(C)C)cc2)cc1,69%[activator],101%[activator]
Cc1ccc(N(C)S(=O)(=O)c2c(-c3ccccc3)csc2C(=O)NCc2cccnc2)cc1C,-17%,117%[activator]
CC(NC(=O)CCC1CCCCC1)c1ccccn1 (stereo not given),-8%,-1%
COCCn1c(SCC(=O)c2cc(C)ccc2C)nnc1-c1ccc(Cl)cc1,-15%,84%[activator]
CC(C(=O)NCc1ccccc1)n1nc(-c2ccccc2)c2ccccc21 (stereo not given),0%,-1%
Brc1ccccc1N=Cc1ccc(-c2ccccc2)cc1,19%,-3%
COc1ccc(C)cc1NC(=O)CSc1ccc(-c2ccccn2)nn1,32%[activator],6%
CC(NC(=O)NCCNc1ncccn1)c1cccnc1 (stereo not given),9%,10%
CC(NC(=O)C1CC1)C1CC2CCC1C2 (stereo not given),16%,12%
Cc1cc(C)c2oc(=O)cc(CN3CCN(Cc4ccccc4)CC3)c2c1,-11%,-15%
Cc1ccc(/C=C/C(=O)Nc2ccc(S(N)(=O)=O)cc2)o1,6%,-4%
CCCCNC(=O)c1nn(-c2ccc(CC)cc2)nc1CO,13%,-6%
CCc1ccc(-c2csc(NC(=O)c3ccc4c(c3)NC(=O)C(C)S4)n2)cc1 (stereo not given),?,?
Cc1ccc(NC(=O)C(=O)NCC(c2ccc3c(c2)OCO3)N2CCOCC2)cc1C (stereo not given),-15%,-11%
Cc1ccc(CNCCc2c[nH]c3ccccc23)c(C)c1,?,?
CSc1cccc(-c2nnc(NC(=O)c3ccc4c(c3)OCCO4)o2)c1,6%,-8%
COc1ccc(-c2cnc(NCc3ccc(C)cc3)n2C)cc1,14%,8%
COc1cccc(NC(=O)Cn2c(=O)n(CC(=O)NCc3ccc(C)cc3)c(=O)c3sccc32)c1,0%,0%
CCn1cc(CCC(=O)NCc2ccc(F)cc2)c2ccccc21,-16%,-7%
CC(=O)N1CCc2cc(S(=O)(=O)NC(CC(C)C)C(=O)NCc3ccccc3Cl)ccc21 (stereo not given),-14%,30%
O=C(NCc1cccc(Cl)c1)Nc1ccccc1Cl,156%[activator],23%
Cc1nc(N2CCOCC2)c2c(C(=O)N3CCN(c4cc(Cl)ccc4C)CC3)c(C)oc2n1,-16%&-14%,-13%&-3%
Cc1ccc(NC(=O)c2sc(-n3nc(C)c(Cc4ccc(Cl)cc4)c3C)nc2C)cc1,-12%,-13%
CC(=O)c1cccc(NC(=O)Cc2ccc(NC(=O)N3CCCCc4ccccc43)cc2)c1,2%,22%
COc1ccc(N2C(=O)CSC2c2ccc(F)c(F)c2)cc1 (stereo not given),-1%,3%

# 16 compounds from above, ordered by molar mass, ascending:
SMILES,StopGo FLuc,2A Renilla
Cc1ccc(CNCCc2c[nH]c3ccccc23)c(C)c1,?,?
CC(NC(=O)NCCNc1ncccn1)c1cccnc1 (stereo not given),9%,10%
O=C(NCc1cccc(Cl)c1)Nc1ccccc1Cl,156%[activator],23%
CCCCNC(=O)c1nn(-c2ccc(CC)cc2)nc1CO,13%,-6%
Cc1ccc(/C=C/C(=O)Nc2ccc(S(N)(=O)=O)cc2)o1,6%,-4%
CCn1cc(CCC(=O)NCc2ccc(F)cc2)c2ccccc21,-16%,-7%
Cc1cc(C)c2oc(=O)cc(CN3CCN(Cc4ccccc4)CC3)c2c1,-11%,-15%
COc1ccc(C)cc1NC(=O)CSc1ccc(-c2ccccn2)nn1,32%[activator],6%
CSc1cccc(-c2nnc(NC(=O)c3ccc4c(c3)OCCO4)o2)c1,6%,-8%
CCc1ccc(-c2csc(NC(=O)c3ccc4c(c3)NC(=O)C(C)S4)n2)cc1 (stereo not given),?,?
Cc1ccc(NC(=O)C(=O)NCC(c2ccc3c(c2)OCO3)N2CCOCC2)cc1C (stereo not given),-15%,-11%
CC(=O)c1cccc(NC(=O)Cc2ccc(NC(=O)N3CCCCc4ccccc43)cc2)c1,2%,22%
Cc1ccc(NC(=O)c2sc(-n3nc(C)c(Cc4ccc(Cl)cc4)c3C)nc2C)cc1,-12%,-13%
Cc1nc(N2CCOCC2)c2c(C(=O)N3CCN(c4cc(Cl)ccc4C)CC3)c(C)oc2n1,-16%&-14%,-13%&-3%
CC(=O)N1CCc2cc(S(=O)(=O)NC(CC(C)C)C(=O)NCc3ccccc3Cl)ccc21 (stereo not given),-14%,30%
COc1cccc(NC(=O)Cn2c(=O)n(CC(=O)NCc3ccc(C)cc3)c(=O)c3sccc32)c1,0%,0%

# The results go on.
SMILES,StopGo FLuc,2A Renilla
Cc1c(Cl)cccc1NC(=O)CSc1nc(=O)n(Cc2cccnc2)c2c1CCC2,4%,126%[activator]
CCCCCn1c(=N)c(S(=O)(=O)c2ccccc2)cc2c(=O)n3cccc(C)c3nc21,19%,10%
CCN(Cc1ccc(Br)s1)C(=O)c1cnc(C)cn1,24%,29%
COc1ccccc1CN1CCN(C/C=C/c2ccccc2)CC1,-10%,1%
COc1ccc(-c2noc(-c3cc4ccc(OC(C)=O)cc4oc3=O)n2)cc1,54%[activator],3%
O=C(Cn1nc(-c2ccc(F)cc2)c2ccccc2c1=O)N1CCOCC1,-6%,-11%
